ClpP mod – qHTS Assay for Activators of ClpP; ATP-dependent Clp protease proteolytic subunit (Bacillus subtilis (strain 168)), P80244; purified B. subtilis ClpP, FRET peptide cleavage, 20 min; Potency, µM (highest dose often 57.5 µM), for the others: at the highest dose activity change, negative = active; 340,000 compounds, 1.9% hits; active = well fitted falling curve with a large enough effect; inconclusive = small, poorly fitted or top-dose-only effect; inactive = no such curve, though single readings can be large or run the other way; further: potency means the concentration at half of the fitted maximal effect; the source files actives as falling curves though it sought activators and does not explain the sign; nearly all actives have a fitted effect of over 65% in size; many hits overshoot -100%
Target sequence (P80244 whole entry, looked up): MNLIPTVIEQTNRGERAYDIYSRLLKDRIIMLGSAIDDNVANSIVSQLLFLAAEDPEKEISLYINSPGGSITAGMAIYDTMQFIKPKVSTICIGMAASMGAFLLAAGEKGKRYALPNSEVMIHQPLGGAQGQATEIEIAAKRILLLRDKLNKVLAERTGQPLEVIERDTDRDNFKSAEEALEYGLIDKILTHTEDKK
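FRET quenching reversal measured ClpP activation: 10 microg/mL B. subtilis ClpP at pH 8 with the FRET-FV decapeptide, read at 430 nm after 320 nm excitation. The 20-min minus 0-min signal was scaled between DMSO/no-enzyme wells and ADEP (5.8 microM final).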
gsp antagonist – antagonists of gsp mutant (McCune-Albright syndrome); gsp-mutant cells, cAMP HTRF, 30 min; control for the full effect not named in the record; Potency, µM (top dose mostly 76.9 µM), without a hit: top-dose activity change, negative = inhibition, usual class: inhibitors; 340,000 compounds, 0.4% hits; AID 624288; active = falling curve of any shape with a large fitted effect; inconclusive = falling curve, mostly with a smaller effect; inactive = flat or rising curve; cell line not stated here;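 further: intracellular cAMP measured with PDE inhibitor Ro 20-1724 present during compound exposure; potency means the concentration at half of the fitted maximal effect; on the % scale 0 is the no-effect control and ±100 the full control effect; nearly all actives have a fitted effect of over 65% in size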
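HTRF cAMP read-out (cAMP-d2 plus anti-cAMP antibody-K in lysis buffer, 30 min RT). Before lysis, cells are exposed to compounds with […] for 30 min at 37C in DPBS containing Ca/Mg, BSA and Tween 20.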
TRPML1 ag – human mucolipin-1 channel agonism | 410,000 compounds, 0.12% hits | TRPML1-expressing cells, Ca2+ dye fluorescence, FDSS; host cell line not named in the record; reference of the full effect not given here | Q9GZU1 | AID 624414 | activation, % (test concentration not listed); in the data active = activation above about 50%; inconclusive = about 30% to 50%; inactive = below about 30%; further: 0% is about no effect; the text of the record puts the active cut at 80%
Target sequence (Q9GZU1 whole entry, looked up): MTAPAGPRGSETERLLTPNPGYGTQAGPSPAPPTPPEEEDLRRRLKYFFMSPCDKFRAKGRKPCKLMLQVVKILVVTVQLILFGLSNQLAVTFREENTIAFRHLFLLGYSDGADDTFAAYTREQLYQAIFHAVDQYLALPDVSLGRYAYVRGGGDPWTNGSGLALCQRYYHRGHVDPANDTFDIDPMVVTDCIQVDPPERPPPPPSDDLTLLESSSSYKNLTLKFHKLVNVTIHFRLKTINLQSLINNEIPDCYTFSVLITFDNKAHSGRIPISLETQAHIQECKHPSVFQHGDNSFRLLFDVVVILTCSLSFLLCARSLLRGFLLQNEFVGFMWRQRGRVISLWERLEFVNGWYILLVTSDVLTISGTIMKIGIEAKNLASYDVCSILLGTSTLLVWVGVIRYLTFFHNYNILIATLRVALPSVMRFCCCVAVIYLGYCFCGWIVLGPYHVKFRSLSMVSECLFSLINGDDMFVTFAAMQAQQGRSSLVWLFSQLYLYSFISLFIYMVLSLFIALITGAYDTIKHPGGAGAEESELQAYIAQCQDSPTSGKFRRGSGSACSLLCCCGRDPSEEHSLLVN
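Agonist activity was taken from a 110 s kinetic Ca2+ dye read on the FDSS after pinning compounds onto TRPML1-DL cells. The cells were seeded at 1,500/well with Tet inducer, incubated about 16 h, then dye-loaded at room temperature.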
TRPML1 blocker – blocks the human TRPML1 channel; Q9GZU1; TRPML1-inducible cells, Ca2+ dye fluorescence, FDSS; stronger effect = lower value; inhibition of EC80 agonist-evoked calcium signal; activity change, negative = inhibition, % (concentration not given with the values); 390,000 compounds, 0.02% hits; in the data active means activity change below about -50%; inconclusive means about -30% to -50%; inactive means above about -30%;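 further: stimulus is agonist 54-4 at its EC80 concentration; on the % scale 0 is the no-effect control and ±100 the full control effect; the text of the record puts the active cut at -80%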
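Tet-induced TRPML1-DL cells loaded with Ca8 no-wash calcium dye were read kinetically on FDSS. Compound addition was followed by EC80 agonist 54-4 (4 uM final); inhibition was read over 110 s.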
Menin MLL FP FL – displaces fluorescein MLL peptide from human menin. Fluorescence polarization, fluorescein-MLL peptide displacement from menin. FP activity change, % at 61.4 µM. 290,000 tested, under 10 active. AID 1766; inconclusive = falling polarisation curve, or a change in total fluorescence; inactive = total fluorescence flat and polarisation flat or rising; no compound was filed as active; the % refers to the polarisation; negative = inhibition;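 further: % of control where 0% means no effect; inhibitors lower the polarisation; unlabelled MLL peptide was the positive control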
gsp agonist – gsp mutant agonism. gsp mutant cells, cAMP HTRF, 30 min; control for the full effect not named in the record. Potency, µM (doses to about 76.9 µM), for the others: at the highest dose activation (cAMP increase), usual class: activators. 340,000 compounds, 0.13% hits; active = well fitted activation curve with a large enough effect; inconclusive = small, poorly fitted or top-dose-only effect, or another doubt; inactive = no such curve, though single readings can be large or run the other way; cell line not stated here;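 further: phosphodiesterase inhibitor Ro 20-1724 added with compounds to block cAMP breakdown; potency means the concentration at half of the fitted maximal effect; nearly all actives have a fitted effect of over 60% in size; about a fifth of the inactives were tested at one dose only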
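Cells stably selected in G418 were plated at 2000/well, grown 16-24 hr, then given compounds in DMSO with the PDE inhibitor […] (300 uM solution added) for 30 min at 37C; cAMP was read by HTRF.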
Numbers without * were called inactive; ? = inconclusive; nt = no result given; & = joins results of further samples; [ ] = dose if it differs, or a comment.

SMILES	ClpP mod	gsp antagonist	TRPML1 ag	TRPML1 blocker	Menin MLL FP FL	gsp agonist
COc1cc(CNC(=O)c2ccccc2NC(=O)C2=C(C)OCCS2)cc(OC)c1OC	-4.8%	-6%	-0.9	0	nt	20%
CCC(=O)N1CCc2cc(S(=O)(=O)CCC(=O)NCc3ccc(OC)cc3)ccc21	-1.9%&-4.3%	5%	-0.7&-0.6	3&2	3.2	10%
Cc1ccc(NC(=O)COC(=O)CCC(=O)c2cccs2)cc1S(=O)(=O)N1CCOCC1	1.0%	-17%	0.3	-6	4.8	15%
CC(NCc1ccc(OCc2ccc(Cl)cc2)cc1)C(O)c1ccccc1 (configuration not stated)	nt	5%	-0.1	1	-4.1	-3%[15.4 µM]
N#CCCn1ncc2ccccc21	1.4%	22%	1.0	13	-3.7	-12%
CCc1ccc(N2CC(C(=O)OCC(=O)Nc3ccc(C#N)cc3)CC2=O)cc1 (configuration not stated)	1.1%	-2%	0.5	28	nt	-79%[inhibitor]
O=C(COc1cccnc1[N+](=O)[O-])Nc1cccc(S(=O)(=O)N2CCOCC2)c1	0.2%	7%	2.4	14	6.2	32%
Cc1ccccc1CNC(=O)C(=O)NCC1OCCCN1S(=O)(=O)c1ccc(F)cc1C (configuration not stated)	0.3%	8%	-0.1	2	nt	-3%[15.4 µM]
CCc1ccc(CNC(=O)c2cccc(-n3c(C)nc4cccnc43)c2)cc1	-1.1%	nt	2.2	27	nt	nt
Cc1ccc2cc(C)c(Sc3nnnn3-c3ccccc3)nc2c1	?	7%	1.1	-14	5.6	4%
O=C(CSc1nnc(-c2ccc(F)cc2)o1)N1CCCCC1	nt	1%	0.4	-11	1.4	-27%
O=C(Cc1ccc(Cl)cc1)Nc1ccc(SC(F)F)cc1	-6.3%	-13%	-0.5	-10	5.4	11%
Cc1ccc(S(=O)(=O)N2CCCCC2CCNC(=O)C(=O)NCc2cccnc2)cc1 (configuration not stated)	1.5%	11%	0.9	-12	nt	14%
Nc1cc(S(=O)(=O)Nc2cc(Cl)ccc2Cl)ccc1N1CCOCC1	nt	7%	0.5	-2	3.0	-20%[15.4 µM]
O=C(Nc1cccc2ncccc12)c1ccccc1F	-0.8%	-5%	0.0	-2	-0.3	25%
CC(C)(C)c1ccc(C(=O)NCC(=O)N/N=C/c2cccs2)cc1	-0.3%	6%	1.3	-9	-5.2	-10%
O=C(CSc1nnc(-c2ccccc2)o1)Oc1ccc(Br)cc1	-0.8%	-3%	-0.4	0	0.3	-66%[inhibitor]
COc1cc(NS(C)(=O)=O)c(OC)cc1NC(=O)c1ccccc1	4.3%	-6%	-0.2	6	-0.4	-28%
COc1ccc(CC(=O)Nc2ccc(C(C)=O)cc2)cc1	-3.0%	-4%	3.8	9	-3.9	-32%
COc1ccc(Cn2nnnc2C(c2ccncc2)N2CCOCC2)cc1 (configuration not stated)	-1.1%	4%	0.6	18	3.5	10%
COc1ccc(-n2c(Cc3cccn3C)nnc2SCC(N)=O)cc1	-0.2%	4%	0.0	-1	2.6	-16%
Cc1nn(-c2ccccc2)c(C)c1C(=O)OCC(=O)c1c(N)n(CC(C)C)c(=O)n(C)c1=O	1.1%	?	-0.5	-2	-0.7	?
Cc1ccc(C(C(=O)NC2CCCCC2)N(Cc2ccco2)C(=O)Cc2c[nH]c3ccccc23)o1 (configuration not stated)	1.1%	-9%	2.0	-7	0.4	?
CCOc1ccc(CC(=O)NCCS(=O)(=O)N2CCN(c3ccccc3)CC2)cc1	-3.3%	6%	-0.7	22	nt	-32%[inhibitor]
CN(Cc1ccccc1)C(=O)c1ccc(NC(=O)Cc2ccc(NC(=O)C3CCCN(C(=O)C4CCC4)C3)cc2)cc1 (configuration not stated)	-1.6%	-2%	0.0	-8	nt	nt
Cc1sc2ncn(CC(=O)NCc3ccco3)c(=O)c2c1-c1ccccc1	nt	-14%	0.5	-16	0.3	11%[15.4 µM]
COc1ccccc1NS(=O)(=O)c1ccc(N/N=C/C=C/c2ccccc2[N+](=O)[O-])c([N+](=O)[O-])c1	-2.6%	5%	0.1	41	0.3	-29%
Cc1ccc(Cn2c(SCC(=O)NCc3ccco3)nc3ccsc3c2=O)cc1	0.4%	2%	4.1	-10	-2.4	-29%
CN1C(=O)/C(=C/c2ccco2)SC1=Nc1cccc(C(=O)O)c1	nt	-15%	-0.4	8	?	0%[15.4 µM]
COc1cc(OC)cc(C(=O)NCC(=O)OCC(=O)C(C)(C)C)c1	-4.7%	-6%	0.3	7	0.2	8%
Cc1nn(CCOc2ccccc2)c(=O)n1-c1cccc(F)c1	0.1%	0%	-1.0	6	-1.2	?
O=C(Nc1ccccc1Oc1ccccc1)c1cc([N+](=O)[O-])ccc1Cl	1.1%	-23%	1.7	2	2.0	23%
CC1CCN(C(=O)COC(=O)c2ccc([N+](=O)[O-])o2)CC1	nt	1%	0.1	28	nt	?
c1ccc2c(c1)COC(CN1CCCCC1)OC2	-0.9%	8%	0.3	9	-2.5	-42%[inhibitor]
O=C(O)C=C1C2CC3CC(C2)CC1C3	-1.6%	-4%	-0.1	-1	-1.2	-1%
c1ccc(Sc2ncnc3c2oc2ccccc23)cc1	-4.5%	-20%	1.5	13	1.6	21%

Two compounds from above with just gsp antagonist and gsp agonist:
molecule	gsp antagonist	gsp agonist
CN(Cc1ccccc1)C(=O)c1ccc(NC(=O)Cc2ccc(NC(=O)C3CCCN(C(=O)C4CCC4)C3)cc2)cc1 (configuration not stated)	-2%	nt
Cc1sc2ncn(CC(=O)NCc3ccco3)c(=O)c2c1-c1ccccc1	-14%	11%[15.4 µM]

The results go on.
SMILES	ClpP mod	gsp antagonist	TRPML1 ag	TRPML1 blocker	Menin MLL FP FL	gsp agonist
C/C(CCC1CC(C)OC1=O)=N\NC(N)=O (configuration not stated)	-2.3%	10%	0.0	-7	2.7	0%[15.4 µM]
CC1(C)CC(=O)c2cc(-c3nc(-c4ccc(Br)cc4)cs3)c(=O)n(-c3ccccc3)c2C1	?	nt	0.2	-3	nt	nt
COc1ccccc1N1C(=S)NC2CS(=O)(=O)CC21 (configuration not stated)	nt	6%	1.2	-4	0.5	15%[15.4 µM]
Cc1occc1-c1nnc(SCC(=O)Nc2nccs2)n1Cc1ccco1	-0.8%	7%	1.3	23	8.3	-30%
Cc1cc(C)cc(NC(=O)N2CCC(N3CCN(Cc4ccccc4)C(=O)C3=O)CC2)c1	0.1%	nt	1.1	-7	nt	nt
Cc1ccccc1N1OC2C(=O)N(c3ccc(F)cc3)C(=O)C2C1c1ccccn1 (configuration not stated)	1.3%	-27%	3.3	22	-1.1	?
CC[C@@]1(c2cccc(C)c2)C(=O)N(C(=O)OC)N1C(=O)OC	-0.7%	9%	-0.2	-9	2.7	nt
CC(C)(C)N=Cc1c(O)ccc2oc3c(c12)CCCC3	-0.9%	-18%	1.5	1	11	?
COc1cc(S(=O)(=O)N2CCOCC2)cc(C(=O)NCC(c2cccs2)N2CCOCC2)c1OC (configuration not stated)	-19%	10%	-0.8	-5	nt	14%
Cc1ccc(NC(=O)CSCC(=O)O)cc1	0.2%	2%	0.9	-6	-3.1	19%
Cc1occc1C(=O)NCc1cccc(CNC(=O)c2ccoc2C)c1	-4.9%	-7%	0.8	8	3.1	5%
CN(Cc1ccccc1)c1ncnc2onc(-c3ccc(F)cc3)c12	-1.8%	nt	1.5	15	nt	nt

Single entries from above.
TRPML1 ag with Cc1nn(CCOc2ccccc2)c(=O)n1-c1cccc(F)c1 = -1.0
gsp agonist with CN1C(=O)/C(=C/c2ccco2)SC1=Nc1cccc(C(=O)O)c1 = 0%[15.4 µM]

Other compounds
SMILES	ClpP mod	gsp antagonist	TRPML1 ag	TRPML1 blocker	Menin MLL FP FL	gsp agonist
CCOC(=O)c1oc2ccccc2c1COC(=O)CNC(=O)c1ccc(C)cc1	nt	-12%	2.9	9	nt	-13%[15.4 µM]
C=CCCCCCCCC(=O)OC	-5.9%	9%	nt	nt	-2.2	nt
CCC(C(=O)NCc1ccc(F)cc1)N(CCc1ccccc1)C(=O)c1snc(C(N)=O)c1N (configuration not stated)	nt	-8%	1.1	38	1.0	-5%[15.4 µM]
C/C=C/C(=O)Nc1cccc(C2=NOC3(C2)C[C@@H](C(N)=O)N(C(=O)/C(C)=C/C)C3)c1 (some centres not stated)	-0.6%	6%	-0.5	18	3.9	nt
COc1ccc(C2NC(=O)c3sc(=S)n(-c4ccccc4)c3N2)cc1 (configuration not stated)	2.4%	0%	-0.4	9	-3.5	-16%
CC(=O)N(C)c1cccc(-c2ccc3nnc(C)n3n2)c1	3.0%	5%	0.2	-7	-6.5	31%
O=C(O)CSc1c2c(nc3cc(C(=O)Nc4ccc(F)c(Cl)c4)ccc13)CCC2	-1.7%	nt	-0.1	0	nt	nt
CN(CC(=O)Nc1ccccc1C(=O)N1CCCC1)S(=O)(=O)c1ccc(Br)cc1	-1.1%	11%	0.9	-15	3.3	22%
CN1CCN(CCCNC(=O)c2ccc(/C=C3\Oc4ccccc4N(Cc4ccccc4F)C3=O)cc2)CC1	4.3%	8%	-0.2	?	0.5	20%
Cc1ccccc1NC(=O)COc1coc(CN2CCCc3ccccc32)cc1=O	1.7%	-8%	1.5	-14	nt	-40%[inhibitor]
COc1ccc(NC2CCCN(C(=O)C3=NN(C)C(=O)CC3)C2)cc1OC (configuration not stated)	0.3%	-1%	-0.3	13	-1.5	-13%
O=C(COc1cccnc1[N+](=O)[O-])NCCc1ccc(F)cc1	-0.9%	4%	-0.4	20	-0.6	-3%[15.4 µM]
CCN(CC)S(=O)(=O)c1cccc(C(=O)OC2CCOC2=O)c1 (configuration not stated)	nt	1%	0.9	25	-1.4	4%
COc1cccc(OCCNC(=O)c2cc([N+](=O)[O-])cc([N+](=O)[O-])c2)c1	nt	nt	3.0	-1	-2.8	-1%[15.4 µM]
O=C(NNS(=O)(=O)c1ccc(F)cc1)c1ccc([N+](=O)[O-])cc1Cl	nt	2%	-0.2	17	-1.4	-25%
COc1ccccc1NC(=O)Cc1nnc(SCC(=O)c2ccc(F)cc2)n1C	nt	-4%	-0.6	0	2.8	23%
CCOc1ccc(-c2noc(CCCC(N)=O)n2)cc1OC	0.9%	2%	-0.6	8	0.9	4%
CC(C)(Cc1cc(CC(C)(C)C(=O)O)cc(C(C)(C)C)c1)C(=O)O	-0.4%	-3%	-0.3	18	3.4	-6%
COc1ccccc1NC(=S)N(Cc1ccccc1)Cc1cccs1	nt	-2%	0.0	-2	8.6	1%[15.4 µM]
Oc1ccc(Br)cc1/C=N/Nc1ccccn1	-5.9%	-3%	3.7	-2	1.1	20%
CCCCCCCCCCOC(=O)Cn1c(COc2ccc(Cl)cc2)[n+](C)c2ccccc21	0.5%	-1%	-0.1	18	-8.0	1%
